TRPML1 agonist = qHTS for Agonists of the Human Mucolipin Transient Receptor Potential 1 (TRPML1); actives 0.12% (n = 410,000); Mucolipin-1 (Homo sapiens), Q9GZU1; AID 624414, 2012; activation, % (no concentration beside the values); TRPML1-expressing cells, Ca2+ dye fluorescence, FDSS; host cell line not named in the record; reference of the full effect not given here; in the data active = activation above about 50%; inconclusive = about 30% to 50%; inactive = below about 30%; note: 0% is about no effect; the text of the record puts the active cut at 80%
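Tet-induced TRPML1-DL cells, 1,500 per well, cultured overnight, were loaded with a no-wash Ca2+ dye for 45–90 min. Calcium fluorescence was recorded on the FDSS for 110 s after compound addition, before the EC80 agonist (4 uM 54-4) was added.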
PINK1 modulator = A Quantitative High throughput Screen to Identify Chemical Modulators of PINK1 Expression. actives 0.2% (n = 410,000). AID 624263, 2012. Potency, µM (series often up to 76.6 µM), for inactives: at the top dose activation (PINK1 increase), most hits filed as activators. PINK1 immunofluorescence, high-content cytometry, 24 h; active = well fitted activation curve with a large enough effect; inconclusive = small, poorly fitted or top-dose-only effect; inactive = flat fitted curve, though single readings scatter; cell line not stated here;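 note: potency is the fitted concentration of half-maximal effect; % of control where 0% means no effect; nearly all actives have a fitted effect of over 65% in size; a mitochondrial uncoupler was the plate control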
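Stable cell line, 250 cells/well, 12 h attachment; compounds pinned at 5 concentrations, 24 h; CCCP control. Fixed with nuclear dye, primary antibodies 12 h at 10 degrees C, secondary plus cell stain; laser-scanning cytometer read.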
D2 agonist = Beta-Arrestin HTS for Positive Allosteric Modulators of the Human D2 Dopamine Receptor: Agonists; AID 624465, 2012; DiscoveRx PathHunter D2 beta-arrestin, luminescence, 90 min; 100% = 57 uM dopamine signal; activation, % (concentration not given with the values); D(2) dopamine receptor (Homo sapiens), P14416; actives 0.084% (n = 360,000); in the data active = activation above about 40%; inconclusive = about 15% to 40%; inactive = below about 15%; note: compound concentration not given in the record; the text of the record calls up to 30% inactive
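Agonist mode: compounds alone added to overnight-plated D2 PathHunter cells for 90 min at 37 C, with 57 uM final dopamine (EC100) defining full response. Beta-arrestin recruitment detected by chemiluminescent reagent, read after 1 h at ambient temperature.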
Six1-Eya2 blk = qHTS Assay for Inhibitors of the Six1/Eya2 Interaction | Homeobox protein SIX1 (Homo sapiens) + Protein phosphatase EYA2 (Homo sapiens), … | AlphaScreen GST-Six1/His-Eya2 binding, biochemical; active compounds read low; control for the full effect not named in the record | activity change, % (test concentration not listed) | actives 0.56% (n = 360,000); in the data active = activity change below about -65%; inconclusive = about -30% to -65%; inactive = above about -30%; note: % is set by controls: 0 for no effect and ±100 for the full control effect
Target sequence (O00167 whole entry, looked up): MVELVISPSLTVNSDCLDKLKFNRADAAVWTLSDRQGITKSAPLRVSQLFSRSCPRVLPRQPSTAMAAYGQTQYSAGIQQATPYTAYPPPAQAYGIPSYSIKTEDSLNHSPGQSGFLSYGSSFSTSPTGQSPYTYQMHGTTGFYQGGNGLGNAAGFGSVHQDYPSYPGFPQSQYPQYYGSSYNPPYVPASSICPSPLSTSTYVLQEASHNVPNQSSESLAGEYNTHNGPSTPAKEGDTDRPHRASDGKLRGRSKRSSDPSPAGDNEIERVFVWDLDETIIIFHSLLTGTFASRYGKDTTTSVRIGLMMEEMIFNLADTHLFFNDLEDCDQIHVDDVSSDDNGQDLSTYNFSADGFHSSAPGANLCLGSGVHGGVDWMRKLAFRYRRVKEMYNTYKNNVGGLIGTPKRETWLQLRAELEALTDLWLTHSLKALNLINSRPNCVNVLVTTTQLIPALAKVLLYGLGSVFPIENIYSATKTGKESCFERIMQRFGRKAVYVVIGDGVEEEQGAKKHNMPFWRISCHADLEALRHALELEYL
Target sequence (Q15475 whole entry, looked up): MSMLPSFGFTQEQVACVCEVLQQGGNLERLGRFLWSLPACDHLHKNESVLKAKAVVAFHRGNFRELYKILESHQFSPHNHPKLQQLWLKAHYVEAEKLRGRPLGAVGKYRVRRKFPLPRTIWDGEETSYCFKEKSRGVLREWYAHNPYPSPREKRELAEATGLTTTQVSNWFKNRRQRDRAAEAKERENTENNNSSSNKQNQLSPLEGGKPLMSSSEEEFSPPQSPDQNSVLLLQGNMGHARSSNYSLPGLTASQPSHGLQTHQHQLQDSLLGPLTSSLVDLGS
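AlphaScreen with GST-Six1 and His-Eya2 (5X mix: 250 nM and 500 nM), glutathione donor and nickel acceptor beads; buffer 50 mM Tris pH 8.0, 300 mM NaCl, 1 mM TCEP; 1 h at 37 C in the dark.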
TRPML1 blocker = qHTS for Inhibitors of the Human Mucolipin Transient Receptor Potential 1 (TRPML1); TRPML1-inducible cells, Ca2+ dye fluorescence, FDSS; active compounds read low; inhibition of EC80 agonist-evoked calcium signal; AID 624415, 2012; activity change, negative = inhibition, % (test concentration not listed); Mucolipin-1 (Homo sapiens), Q9GZU1; actives 0.02% (n = 390,000); in the data active means activity change below about -50%; inconclusive means about -30% to -50%; inactive means above about -30%;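 note: stimulus is agonist 54-4 at its EC80 concentration; % is set by controls: 0 for no effect and ±100 for the full control effect; compound concentration not given in the record; the text of the record puts the active cut at -80%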
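Tet-induced TRPML1-DL cells loaded with Ca8 no-wash calcium dye were read kinetically on FDSS. Compound addition was followed by EC80 agonist 54-4 (4 uM final); inhibition was read over 110 s.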
CtBP-E1A inh = qHTS Assay for Inhibitors of the CtBP/E1A Interaction; AlphaScreen GST-E1A/His-CtBP binding, 1536-well; active compounds read low; control for the full effect not named in the record; activity change, % (test concentration not listed); actives 0.49% (n = 340,000); AID 651724, 2012; in the data active means activity change below about -65%; inconclusive means about -30% to -65%; inactive means above about -30%; note: % is set by controls: 0 for no effect and ±100 for the full control effect
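GST-E1A and His-tagged CtBP (125 nM each as 5X stock) were preincubated with pin-transferred compound for 2 h at 37 °C in the dark, then glutathione donor and nickel acceptor beads were added for 1 h before AlphaScreen reading.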
Active calls of the source: *; ? = inconclusive; / = no result given; [ ] = remark or other dose.

Order of values: TRPML1 agonist	PINK1 modulator	D2 agonist	Six1-Eya2 blk	TRPML1 blocker	CtBP-E1A inh
> CC(C)C[C@H]1CN(CCCC[C@@H]2CNC(=O)C(=O)N2Cc2ccccc2)C(=O)C(=O)N1CC1CCCCC1
 : -0.6	0.0%	/	-2.2	/	-0.6
> COc1ccc(NC(=O)Nc2c(C)n(C)n(-c3ccccc3)c2=O)cc1OC
 : 1.0	-0.6%	0.8	-12.4	-11.7	9.1
> CCc1nnc(NC(=O)c2ccc(Cl)c(S(=O)(=O)N3CCc4ccccc43)c2)s1
 : 1.8	8.2%	-0.9	-2.4	65.7	-9.9
> COC(=O)c1ccc(N2CCN(S(=O)(=O)c3ccccc3)CC2)c([N+](=O)[O-])c1
 : 1.9	-2.3%	-1.0	-22.9	-8.2	-20.5
> Cc1ccsc1/C=N/NC(=O)C1C(=O)NCC1c1ccccc1 (stereo not given)
 : 0.7	-0.1%	2.7	5.6	27.6	-0.9
> COC(=O)c1ccc2c(=O)n(CCCCCC(=O)O)c(=S)[nH]c2c1
 : -0.4	2.5%	-3.4	-2.9	-7.2	4.3
> Cc1cccc(NC(=O)C2C(c3ccccc3)C2(Cl)Cl)c1C (stereo not given)
 : 4.3	26.6%	0.2	6.6	-14.3	15.5
> Cc1cc(F)ccc1NC(=O)CN(C)S(=O)(=O)c1ccc(C(=O)N2CCOCC2)s1
 : -1.0	1.1%	/	/	-1.8	/
> C#CCOCCOCCOCCNc1nc(N2CCN(C(=O)[C@H](CCCCN)n3cc([C@@H](N)[C@H](C)CC)nn3)CC2)nc(N2CCN(C(=O)[C@H](CCC(=O)O)n3cc([C@@H](N)CCCCN)nn3)CC2)n1
 : -1.2	0.8%	-1.4	14.4	-6.9	0.0
> Cc1ccc(-c2nc(S(=O)(=O)c3ccc(Cl)cc3)c(N3CCCCC3)o2)cc1
 : 0.6	1.8%	/	/	-19.3	/
> COc1ccc(S(=O)(=O)N2CCC[C@H]2C(=O)N2CCC[C@H]2C(=O)N[C@@H](C)c2ccccc2)cc1C
 : -0.8	0.0%	/	0.8	/	-6.5
> O=C(O)CCCC(=O)Nc1ccccc1Oc1ccccc1
 : -0.4	1.2%	-2.7	13.3	-8.4	0.1
> O=C(Nc1ccccc1)c1cn(CCBr)cn1
 : 0.4	0.9%	-2.6	-0.9	10.8	/
> Cc1nc2nc(SCC(=O)NCCCN3CCCC3)nn2c(C)c1Cc1ccccc1Cl
 : 0.2	0.6%	-3.8	-19.0	-6.8	0.0
> CC(C)c1ccc(NC(=O)COC(=O)C2CCCCC2)cc1
 : 0.0	1.9%	-7.4	7.7	-16.8	9.2
> OC(CN1CCOCC1)Cn1cnc2ccccc21 (stereo not given)
 : 0.9	1.0%	1.8	-2.4	-1.2	2.8
> Cc1cccc(C(=O)N2CCC(N3CCC(C(=O)N4CCOCC4)CC3)CC2)c1
 : 0.0	-0.2%	-5.2	3.3	13.1	3.5
> COc1ccccc1/C=C/C(=O)N1CCN(S(=O)(=O)c2cc(C)ccc2C)CC1
 : 0.0	1.7%	-1.7	-8.9	3.6	/
> COc1cccc(CN2CCN(CC#Cc3ccccc3)CC2CCO)c1 (stereo not given)
 : 0.6	0.9%	-2.2	0.9	4.0	-15.0
> O=C(CSc1nnc(CNC(=O)c2ccco2)o1)Nc1ccc(F)cc1
 : -0.2	1.1%	-2.2	-0.9	-3.7	-1.7
> CCCNC(=O)c1cc(C2CCCCN2S(=O)(=O)c2ccc(F)cc2F)on1 (stereo not given)
 : -1.2	0.5%	-3.2	6.8	/	5.6
> CN(C)CCCNC(=O)c1cccc(-c2ccc3nncn3c2)c1
 : 0.3	2.1%	6.0	4.5	/	-11.8
> CC(=O)c1ccc(Nc2nc(C(N)C3CCCCC3)cs2)cc1 (stereo not given)
 : 0.1	2.9%	3.0	-4.3	/	-7.4
> COc1ccc(C(=O)Nc2nnc(Cc3cccs3)s2)cc1OC
 : 0.6	-1.6%	-0.3	14.6	11.7	-0.6
> COc1ccccc1C(=O)Oc1ccc(C(C)(C)C)cc1
 : 0.6	0.8%	-2.8	23.3	-5.4	28.7
> CC1=Nn2c(nnc2-c2ccccn2)SC1
 : 0.5	-0.9%	-4.4	-19.0	-13.3	-17.7
> CC(=O)N1c2ccc(S(=O)(=O)N3CCCC3C(=O)Nc3cccc(F)c3)cc2CC1C (stereo not given)
 : 0.6	5.2%	-0.5	2.3	-17.4	2.3
> CN(Cc1cnn(Cc2ccccc2)c1)C(=O)c1cccc(S(=O)(=O)N2CCOCC2)c1
 : -0.9	10.9%	6.7	3.5	6.9	11.4
> Cc1csc(NC(=O)C2CCCN2C(=O)Oc2ccccc2)n1 (stereo not given)
 : -0.3	0.8%	0.1	0.9	19.4	4.8
> CC(OC(=O)c1cccnc1Cl)C(=O)Nc1ccc2c(c1)OCCO2 (stereo not given)
 : 3.7	-2.7%	-3.6	-1.9	-14.9	-15.3
> CCCC1CCC(c2ccc(OCC)cc2)=CC1=O (stereo not given)
 : /	1.0%	1.9	-1.3	/	/
> O=C(Cc1ccccc1)NC1CCN(C(=O)NCc2ccccc2)CC1
 : -1.1	-0.1%	-1.3	-2.8	-9.2	1.6
> CCc1cc2c(N3CCN(c4nnc(CC)s4)CC3)ncnc2s1
 : 1.3	3.6%	9.5	-0.8	-5.1	1.8
> Cc1ccc(S(=O)(=O)N(CC(O)CN2CCOCC2)c2cc(Cl)ccc2Cl)cc1 (stereo not given)
 : -0.6	-1.4%	-2.6	1.6	-1.6	6.1
> Cc1cccc(N2C(=O)N3[C@H](c4ccc(Br)cc4)[C@@H]4C(=O)N(C(C)(C)C)C(=O)[C@@H]4[C@]3(Cc3ccc(Cl)cc3)C2=O)c1
 : 0.1	0.7%	-2.5	-4.4	31.7	-2.9
> CCn1c(=O)n(CC)c2cc(S(=O)(=O)N3CCC(c4ccccc4)CC3)ccc21
 : 0.2	-3.3%[38.3 µM]	0.6	-9.9	-19.5	-3.6
> Cc1cc(C)cc(NC(=O)c2ccccc2CC[N+](=O)[O-])c1
 : 0.7	-0.7%	-6.4	-0.8	1.9	-1.8
> Fc1ccccc1COc1ccc(Br)cc1CNCC1CCCO1 (stereo not given)
 : 3.8	12.9%	-5.7	4.6	17.0	-8.8
> CS(=O)(=O)N(CC(=O)N1CCCC1)c1cccc(Cl)c1
 : 0.8	-4.2%	0.5	4.9	-11.5	-3.1
> Cc1nc2c(-c3ccc(F)cc3)cnn2c(N)c1-c1ccc(F)cc1
 : 1.5	17.3%	4.3	3.4	72.5	19.1
> CCCC(=O)C1=C(O)C(C(=O)OC)C(C)(C)CC1=Nc1ccccc1 (stereo not given)
 : 1.3	-1.7%	-1.7	7.8	17.0	2.2
> COc1ccccc1N1CCN(/N=C/c2cc(Br)ccc2F)CC1
 : 2.0	5.3%	-6.0	?	-3.7	-28.5
> O=C(Nc1cccc(C(F)(F)F)c1)C1CCN(S(=O)(=O)c2cccc3nsnc23)CC1
 : 2.1	4.0%	/	/	-2.8	/
> O=C(NCc1ccco1)c1ccc(N2CCOCC2)c([N+](=O)[O-])c1
 : -0.7	1.3%	-8.1	6.1	-1.7	-2.1
> CCCN(CC(=O)Nc1ccccc1C)C(=O)COc1c(C)cccc1C
 : -0.3	-0.3%	0.0	3.8	-10.6	0.3
> CCc1nn2c(=O)cc(COC(=O)Cc3ccccc3)nc2s1
 : -0.5	-0.3%	/	/	2.9	/
> COc1ccc(Cl)cc1NS(=O)(=O)c1cc(Br)cnc1N
 : 0.0	2.5%	2.4	1.4	-8.7	0.0
> O=[N+]([O-])c1cccc(COc2cccc(CN3CCCC3)c2)c1
 : -0.2	0.0%	-5.2	-8.3	34.3	-10.8
> Cc1cccc(-c2nc3scc(CCNS(=O)(=O)c4ccc(Oc5ccccc5)cc4)n3n2)c1
 : 2.8	3.5%	/	/	?	/
> O=C(c1cnc(Cl)c(Cl)c1)N1CCN(S(=O)(=O)c2ccc(F)cc2)CC1
 : 0.4	-0.2%	1.3	19.0	-20.5	0.0

Going on with the list:
Order of values: TRPML1 agonist	PINK1 modulator	D2 agonist	Six1-Eya2 blk	TRPML1 blocker	CtBP-E1A inh
> O=C(CN1C(=O)c2ccccc2C1=O)Nc1ccccc1C(=O)N1CCCC1
 : -1.0	1.3%	-3.8	-0.1	16.7	0.8
> CC(Sc1nnc2ccccn12)C(=O)Nc1ccc2c(c1)OCCO2 (stereo not given)
 : 0.6	1.6%	0.2	-1.4	6.1	1.0
> Cc1ccccc1NS(=O)(=O)c1cc2c(cc1C)NC(=O)CO2
 : -0.6	0.9%	-2.3	0.6	11.0	-1.4
> CC(=O)c1ccc2c(c1)Nc1ccccc1S2
 : -0.5	-0.6%	?	5.9	36.2	1.1
> Cc1cc(C)nc(SC/C=C/c2ccccc2)n1
 : /	1.6%	3.5	-1.6	/	/
> Cc1cc(S(=O)(=O)Nc2ccc(C(=O)NCC(c3ccco3)N3CCCCC3)cc2)ccc1F (stereo not given)
 : 0.4	-1.8%	0.7	-4.2	17.2	-18.3
> CCc1cccc(C)c1NC(=O)c1cc(=O)[nH]c2ccc(S(=O)(=O)N3CCOCC3)cc12
 : -1.1	9.3%	-0.7	-6.1	0.2	/
> CCCCn1c(N)c(N(CCC(C)C)C(=O)c2ccc(C)c(S(=O)(=O)N3CCOCC3)c2)c(=O)[nH]c1=O
 : -1.0	-0.1%	-4.0	-1.2	2.3	7.2
> Cc1c(C(=O)OCC(=O)N(CC(C)C)c2c(N)n(Cc3ccccc3)c(=O)[nH]c2=O)oc2ccccc12
 : 5.0	2.0%	-1.1	-0.1	6.3	2.2
> CC(C)CCNC(=O)c1c(CSc2ccccc2)noc1C(=O)NCc1ccccc1
 : 1.1	3.1%	-0.7	-3.9	-10.4	-0.9
> COc1cccc(NC(=O)c2ccc(-c3ccccc3[N+](=O)[O-])o2)c1
 : 2.6	0.5%	6.3	-14.0	-0.6	2.6
> CCCNC(=O)N1C2=NC(C(=O)OC)=C(C(=O)OC)[C@@H]3N(Cc4ccccc4)c4ccccc4[C@]23C[C@H]1CO
 : -0.5	0.8%	4.2	2.2	-0.9	2.2
> COCCNC(=O)CN1CCC(NC(=O)C(C)(C)C)CC1
 : -0.3	/	-2.2	2.8	1.1	4.4
> Cc1cc(C)nc(SCCC(=O)Nc2ccccc2)n1
 : 0.8	4.6%[38.3 µM]	-2.6	-3.2	-14.0	-18.2
> CCOC(=O)C1=C(c2ccc(OC)cc2)OC(N)=C(C#N)C1c1cccnc1 (stereo not given)
 : 0.8	-1.0%	-1.8	17.0	4.2	1.7
> COc1ccc(/C=C/c2nc(C#N)c(N3CCC(C(N)=O)CC3)o2)cc1OC
 : -0.7	0.0%	/	/	-3.0	/
